# Bioassay records (PubChem BioAssay)
# Sfp inh: qHTS Assay for Inhibitors of Bacillus subtilis Sfp phosphopantetheinyl transferase (PPTase) | 4'-phosphopantetheinyl transferase ffp (Bacillus subtilis), Q9F4F7 | Biochemical Sfp PPTase activity, qHTS | Potency, µM, without a hit: max response, negative = inhibition, usual class: inhibitors | hit rate 3.5% among 310,000; active means well fitted inhibition curve with a large enough effect; inconclusive means small, poorly fitted or top-dose-only effect, or another doubt; inactive means no such curve, though single readings can be large or run the other way;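 further: the enzyme is Sfp with the accession as filed and its product quenches rhodamine fluorescence; potency means the concentration at half of the fitted maximal effect; 0% = enzyme reaction without inhibitor and -100% = no enzyme wells; top concentration of the series not given in the record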
#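 Fluorescence-quenching assay: 15 nM Sfp-PPTase preincubated 15 min at room temperature with compound, then 5 uM rhodamine-CoA and 12.5 uM BHQ-2-labelled YbbR peptide added. Fluorescence (ex 525/em 598 nm) read at start and after 30 min; difference gives rate.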
# PINK1 expr mod: A Quantitative High throughput Screen to Identify Chemical Modulators of PINK1 Expression; Potency, µM (titrated, usually from 76.6 µM), for the others: top-dose activation (PINK1 increase), most hits filed as activators; hit rate 0.2% among 410,000; PINK1 immunofluorescence, high-content cytometry, 24 h; active = well fitted activation curve with a large enough effect; inconclusive = small, poorly fitted or top-dose-only effect; inactive = flat fitted curve, though single readings scatter; cell line not stated here;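 further: potency means the concentration at half of the fitted maximal effect; % of control where 0% means no effect; nearly all actives have a fitted effect of over 65% in size; a mitochondrial uncoupler was the plate control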
#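 Stable cell line treated 24 h with compounds at 5 concentrations (CCCP controls), then fixed and immunostained for PINK1 plus nuclear and cell stains; PINK1 immunofluorescence quantified by laser-scanning microplate cytometry.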
# ClpP mod: qHTS Assay for Activators of ClpP; ATP-dependent Clp protease proteolytic subunit (Bacillus subtilis (strain 168)), P80244; purified B. subtilis ClpP, FRET peptide cleavage, 20 min; Potency, µM (highest dose often 57.5 µM), for inactives: top-dose activity change, negative = active; hit rate 1.9% among 340,000; active = well fitted falling curve with a large enough effect; inconclusive = small, poorly fitted or top-dose-only effect; inactive = no such curve, though single readings can be large or run the other way; further: potency means the concentration at half of the fitted maximal effect; the source files actives as falling curves though it sought activators and does not explain the sign; nearly all actives have a fitted effect of over 65% in size; many hits overshoot -100%
# Target sequence (P80244 whole entry, looked up): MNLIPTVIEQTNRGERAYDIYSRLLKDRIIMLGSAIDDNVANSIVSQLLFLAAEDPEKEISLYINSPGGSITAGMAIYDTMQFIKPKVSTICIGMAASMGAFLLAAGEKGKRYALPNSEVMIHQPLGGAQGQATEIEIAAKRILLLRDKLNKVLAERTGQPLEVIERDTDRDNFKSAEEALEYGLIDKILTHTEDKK
#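 ClpP 10 microg/mL final, pH 8 Tris/KCl buffer with BSA, glycerol, Tween-20; compound pinned in; FRET-FV substrate; RT 20 min; Ex320/Em430; ΔFRET vs ADEP 5.8 microM, DMSO, no enzyme.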
# gsp antagonist: qHTS for Antagonists of gsp, the Etiologic Mutation Responsible for Fibrous Dysplasia/McCune-Albright Syndrome: qHTS | hit rate 0.4% among 340,000 | Potency, µM (series often up to 76.9 µM), for inactives: at the highest dose activity change, negative = inhibition, most hits filed as inhibitors | gsp-mutant cells, cAMP HTRF, 30 min; control for the full effect not named in the record; active = falling curve of any shape with a large fitted effect; inconclusive = falling curve, mostly with a smaller effect; inactive = flat or rising curve; cell line not stated here;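 further: intracellular cAMP measured with PDE inhibitor Ro 20-1724 present during compound exposure; potency means the concentration at half of the fitted maximal effect; on the % scale 0 is the no-effect control and ±100 the full control effect; nearly all actives have a fitted effect of over 65% in size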
#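 Cells, 2000/well, grown 16–24 h in DMEM 10% FBS with 0.5 mg/ml G418, then compounds plus […] (300 uM addition stock), 30 min at 37C. cAMP read by HTRF (cAMP-d2 and anti-cAMP antibody-K in lysis buffer) after 30 min RT.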
# gsp agonist: qHTS for Agonist of gsp, the Etiologic Mutation Responsible for Fibrous Dysplasia/McCune-Albright Syndrome: qHTS; gsp mutant cells, cAMP HTRF, 30 min; control for the full effect not named in the record; Potency, µM (series often up to 76.9 µM), inactives show top-dose activation (cAMP increase), usual class: activators; hit rate 0.13% among 340,000; active = well fitted activation curve with a large enough effect; inconclusive = small, poorly fitted or top-dose-only effect, or another doubt; inactive = no such curve, though single readings can be large or run the other way; cell line not stated here;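 further: phosphodiesterase inhibitor Ro 20-1724 added with compounds to block cAMP breakdown; potency means the concentration at half of the fitted maximal effect; nearly all actives have a fitted effect of over 60% in size; about a fifth of the inactives were tested at one dose only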
#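 Cells in DMEM/10% FBS with G418 were pretreated with compounds in DMSO plus […] (300 uM stock) for 30 min at 37C. cAMP was measured by HTRF (cAMP-d2 plus anti-cAMP antibody-K) after 30 min at room temperature.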
# Menin MLL FP FL: qHTS Assay for Inhibitors Targeting the Menin-MLL Interaction in MLL Related Leukemias: Competition With Fluorescein Labeled MLL-derived Peptide. FP activity change, % at 61.4 µM. 290,000 tested, under 10 active. Fluorescence polarization, fluorescein-MLL peptide displacement from menin; inconclusive = falling polarisation curve, or a change in total fluorescence; inactive = total fluorescence flat and polarisation flat or rising; no compound was filed as active; the % refers to the polarisation; negative = inhibition;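 further: % of control where 0% means no effect; inhibitors lower the polarisation; unlabelled MLL peptide was the positive control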
# D2 agonist: Beta-Arrestin HTS for Positive Allosteric Modulators of the Human D2 Dopamine Receptor: Agonists; AID 624465, 2012; DiscoveRx PathHunter D2 beta-arrestin, luminescence, 90 min; 100% = 57 uM dopamine signal; D(2) dopamine receptor (Homo sapiens), P14416; hit rate 0.084% among 360,000; activation, % (no concentration beside the values); in the data active = activation above about 40%; inconclusive = about 15% to 40%; inactive = below about 15%; further: compound concentration not given in the record; the text of the record calls up to 30% inactive
# Target sequence (P14416 whole entry, looked up): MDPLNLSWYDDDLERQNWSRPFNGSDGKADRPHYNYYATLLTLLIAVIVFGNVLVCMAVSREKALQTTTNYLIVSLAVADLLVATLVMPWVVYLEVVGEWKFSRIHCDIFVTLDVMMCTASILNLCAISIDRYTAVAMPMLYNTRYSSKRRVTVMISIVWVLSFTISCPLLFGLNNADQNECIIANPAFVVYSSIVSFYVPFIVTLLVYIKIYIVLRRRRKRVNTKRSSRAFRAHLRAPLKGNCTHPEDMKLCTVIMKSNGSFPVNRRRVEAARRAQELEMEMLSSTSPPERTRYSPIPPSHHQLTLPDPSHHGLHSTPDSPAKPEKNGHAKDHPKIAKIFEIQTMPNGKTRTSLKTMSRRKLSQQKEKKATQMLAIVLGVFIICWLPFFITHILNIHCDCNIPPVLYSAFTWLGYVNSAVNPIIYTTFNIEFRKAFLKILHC
#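 Agonist mode: compounds alone added to overnight-plated D2 PathHunter cells for 90 min at 37 C, with 57 uM final dopamine (EC100) defining full response. Beta-arrestin recruitment detected by chemiluminescent reagent, read after 1 h at ambient temperature.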
# The depositor's hits bear a star; ? = inconclusive; . = no result given; [ ] = dose if it differs, or a comment.
SMILES,Sfp inh,PINK1 expr mod,ClpP mod,gsp antagonist,gsp agonist,Menin MLL FP FL,D2 agonist
Cc1csc(NC(=O)CCC(=O)N(CC(=O)NC2CCCC2)Cc2ccccc2)n1,11.5%,2.5%,.,0.6%,0.3%[15.4 µM],0.5,-0.9
C=CCn1c(CNC(=O)c2ccco2)nnc1SCC(=O)Nc1cccc(F)c1,17.1%,3.6%,.,8.8%,-21.9%[15.4 µM],-1.2,-4.1
Cc1ccc(C)c(OCC(=O)Nc2c[nH]c(=O)[nH]c2=O)c1,13.1%,-0.1%,-0.9%,7.4%,0.9%,2.9,1.5
Cc1cc(N)n2ncc(-c3ccc(Cl)cc3)c2n1,11.1%,-1.7%,22.4µM*,-1.4%,-27.1%,1.9,-1.4
COc1ccc2c(C)cc(SCc3c(C)noc3C)nc2c1,?,?,-12.4%,-14.9%,5.3%,5.9,1.0
COc1ccc(NC(=O)c2cc(C3CCCCN3S(=O)(=O)c3ccc(C#N)cc3)on2)c(C)c1 (stereo unspecified),.,0.1%,-0.9%,.,.,.,2.3
O=C(O)CCC(=O)NCc1c(Cl)cccc1Sc1ccc(Cl)cc1,-0.2%,-0.1%,-0.4%,-32.2%,4.5%[15.4 µM],2.6,-3.8
CC(C)C(=O)Nc1nnc(COc2ccc(Cl)cc2)s1,17.3%,6.0%,2.9%,9.9%,-7.9%,-7.3,-5.5
CC(Oc1ccc2ccccc2c1)C(=O)N/N=C/c1cccnc1 (stereo unspecified),2.2%,-0.4%,.,-19.2%,-32.5%[inhibitor],.,7.9
CN(c1ccccc1)S(=O)(=O)c1ccc(Cl)c(C(=O)Nc2ccc(-c3nc4ccccc4[nH]3)cc2)c1,21.5%,11.2µM*,?,-7.3%,3.6%[15.4 µM],8.3,8.8
O=C(NCC1CCCO1)C1CCC(CNS(=O)(=O)c2ccccc2)CC1 (stereo unspecified),13.3%,0.4%,0.9%,1.3%,-0.9%,2.8,-2.8
COc1ccc(-c2nc(=S)c3c(n2CCN2CCOCC2)CC(C)(C)OC3)cc1,0.9%,1.4%,1.2%,0.2%,7.2%,0.6,-2.1
O=C(N/N=C/c1cn(-c2cccs2)nc1-c1ccccc1)c1ccccc1O,23.3%,28.2µM*,?,28.2µM*,-8.0%,.,-6.4
CCC1=Nc2ccccc2NC2=C1C(=O)CCC2,35.5µM*,1.8%,-2.9%,2.2%,-8.7%,?,3.9
CCOc1ccc(C(=O)c2ccccc2C(=O)O)cc1OCC,14.4%,-1.3%,.,-1.9%,-5.1%,3.3,0.8
CCOC(=O)c1ccc(NC(=O)CN2CCN(CCN=CC3=C(O)CC(C)(C)CC3=O)CC2)cc1,11.6%,-1.3%,.,5.3%,-0.2%,-0.9,2.5
COc1cc2c(c(OC)c1OC)-c1ccc(OC)c(=O)cc1[C@@H](N(C)CC#CCO)CC2,14.3%,20.4%,.,0.0%,-13.7%[15.4 µM],-2.5,-1.6
CCCC(=O)N1CCC1(C)C(=O)Nc1cc(C)ccc1C (stereo unspecified),.,-0.4%,0.9%,.,.,.,-6.2
O=C(CSc1c[nH]c2ccccc12)NCc1ccc2c(c1)OCO2,-1.8%,-1.1%,1.1%,-6.0%,-18.5%,2.9,3.4
C=CCOn1c(=O)c(-c2ccc(F)cc2)[n+]([O-])c2ccccc21,13.6%,0.4%,-2.6%,2.2%,-0.8%,5.0,-2.9
Cc1cc(C)cc(NC(=O)N2CCCN(c3ncccc3[N+](=O)[O-])CC2)c1,24.3%,1.1%,0.7%,-25.7%,-53.5%[inhibitor],-0.1,-3.4
CCN(CC)CCNC(=O)CCN1N=C(c2ccccc2)CCC1=O,-14.1%,-1.1%,0.4%,15.0%,-5.9%,3.8,-11.5
O=C(Nc1ccccc1)c1ccccc1Oc1ccc(C(F)(F)F)cc1[N+](=O)[O-],3.7%,4.6%,-0.6%,-18.4%,-15.6%,-1.3,-3.6
O=C1c2ccccc2C(=O)c2c([N+](=O)[O-])ccc(O)c21,9.0%,-1.5%,.,-7.9%,39.1%,5.6,?
CCCS(=O)(=O)c1c(S(=O)(=O)CCC)c2cnccn2c1C(=O)c1ccc(F)cc1,4.8%,-1.6%[38.3 µM],-0.8%,-12.2%,-41.6%[inhibitor],0.1,2.1
Cc1cc(C(F)(F)F)cc(NNC(=O)NC(=O)c2ccccc2Cl)n1,0.7%,-1.2%,-1.6%,-2.6%,3.2%,10.5,-9.5
Cc1ccc(CN(C)C(=O)c2ccc(NS(=O)(=O)c3ccc4[nH]c(=O)[nH]c4c3)cc2)cc1,.,-0.4%,-2.1%,5.2%,0.9%,.,-7.8
Cc1nc(N)nc(OCC(F)(F)C(F)F)c1Br,1.6%,-3.5%,0.5%,-6.9%,-46.2%[inhibitor],-1.5,-1.2
Cc1cc(O)c(C(C)C)cc1N=Cc1ccc([N+](=O)[O-])cc1,.,2.3%,0.7%,?,-60.6%[inhibitor],.,11.7
CNC(=S)NNC(=O)Cc1ccccc1,0.5%,-4.8%,-2.2%,5.6%,12.0%,1.7,1.7
CN1CCNC(=O)C1CC(=O)N1CC=C(c2ccc(F)cc2)CC1 (stereo unspecified),2.2%,-0.8%,.,-16.6%,-10.7%,2.4,-0.2
Cc1cc(C)n(CCNC(=O)C2CCC(=O)N(CC3CCCCC3)C2)n1 (stereo unspecified),7.1%,-1.5%,-1.1%,2.2%,?,.,-0.3
COc1ccc(Cl)cc1C(=O)NC(=S)Nc1nc(C)cc(C)n1,.,10.5%,0.4%,7.9%,-12.2%[15.4 µM],.,-5.5
CN(C(=O)COC(=O)c1ccc(Cl)nc1)C1CCS(=O)(=O)C1 (stereo unspecified),9.9%,1.9%,-4.0%,15.0%,-12.3%[15.4 µM],-3.2,4.5
Cc1nc2sc(C)c(C)c2c(=O)[nH]1,5.9%,-0.8%,-1.4%,13.7%,7.8%,0.2,-2.9
O=C(Nc1ccc2nc3n(c(=O)c2c1)CCCCC3)c1ccccc1[N+](=O)[O-],8.2%,0.3%,-2.4%,-2.5%,5.1%,.,-1.1
O=C(O)c1ccc(C2Nc3ccccc3C(=O)N2Cc2ccccc2)cc1 (stereo unspecified),8.6%,1.1%,.,0.2%,-4.3%[15.4 µM],-0.2,1.4
COc1nccnc1NS(=O)(=O)c1ccc(NC(=S)NC(=O)c2ccc(F)c(F)c2)cc1,-24.8%,-1.0%,0.9%,-15.2%,-37.3%[inhibitor],0.2,-7.0
COc1ccc(/C(C)=N\NS(=O)(=O)c2ccccc2)cc1OC,9.7%,3.1%,-2.0%,5.8%,-1.4%,3.9,-4.1
Cc1cc2c(cc1S(=O)(=O)N(C)c1ccccc1)n(C)c(=O)n2C,13.1%,3.1%,-1.5%,-9.6%,-29.8%,0.4,6.3
O=C(CCCC(=O)N/N=C\c1ccccn1)N/N=C\c1ccccn1,39.8µM*,1.0%,-16.5%,5.0%,0.0%,-1.1,0.3
COCCN(C(=O)C1CC1)c1nnc(-c2ccc(C)cc2)s1,5.6%,0.1%,-11.1%,-8.4%,8.8%,2.8,-3.5
CC(=O)c1ccccc1OCC(=O)Nc1cccc(S(=O)(=O)N2CCCC2)c1,.,1.5%,-5.6%,-13.5%,4.2%,.,-1.1
COc1ccc(Br)cc1C(=O)Nc1ccccc1N1CCCC1,.,1.2%,-11.1%,?,-29.8%,.,-4.8
COc1ccc(C(=O)N2CCN(C)C(=O)[C@@H]2C)cc1OC1CCN(C(C)=O)CC1,24.0%,-0.4%,31.6µM*,0.9%,-27.7%,.,-1.6
CCOc1ccc2nc(N3CCC(C(=O)Nc4nnc(CC)s4)CC3)sc2c1,-7.4%,2.8%,-0.6%,-9.3%,-12.6%,1.6,-5.4
O=C(CCCc1ccccc1)Nc1cccnc1,14.7%,0.7%,-1.4%,-4.6%,-4.1%,0.8,-1.4
O=C1c2ccccc2-c2onc3ccc(NCCCn4ccnc4)c1c23,-1.3%,0.2%[38.3 µM],0.5%,-4.0%,5.1%,?,8.7
Cc1cc(C(=O)COC(=O)c2cc(O)c3ccccc3c2O)c(C)n1CC1CCCO1 (stereo unspecified),79.4µM*,3.9%,1.4%,1.5%,5.9%[15.4 µM],-4.3,?
COc1ccc(NC(=O)CCCC(=O)OCC(F)(F)C(F)F)cc1,18.1%,11.4%[38.3 µM],0.6%,5.0%,?,-2.2,0.7
Cc1cc(C)c(S(=O)(=O)c2ccc(Cl)cc2)c(=O)[nH]1,9.6%,-0.4%,2.6%,10.0%,-10.9%[15.4 µM],1.1,-1.3
CC[C@]12c3[nH]c4cc(CCC(=O)N(C)C)ccc4c3CCN1C(=O)[C@@H](CC(=O)NCc1ccc(OC)c(OC)c1)C[C@@H]2C(=O)N1CCN(C(=O)C2CC2)CC1,.,0.9%,-3.3%,19.9%,.,.,-3.0
O=C1N=C(N2CCOCC2)S/C1=C\c1ccncc1,0.5%,-0.2%,.,-19.9%,2.6%[15.4 µM],0.6,-4.3
CN(C)CCNc1oc(/C=C/c2ccccc2)nc1C#N,3.2%,-1.8%,-7.2%,6.3%,12.0%,12.0,-2.7
CCc1cc2c(=O)[nH]c(CC(N)=O)nc2s1,5.1%,-2.8%,.,-3.2%,26.7%,0.7,3.0
CCOc1cc(C(=O)CSc2nnc(CNc3ccc(Cl)cc3)o2)ccc1NC(=O)CC,12.8%,-3.3%,1.6%,32.3%[activator],-30.1%[inhibitor],0.9,?
COc1ccc(Cc2noc(CN(C)Cc3ccc(-n4cccn4)cc3)n2)cc1OC,8.6%,-0.3%,1.2%,0.4%,10.8%,0.3,2.4
COc1ncc2ncc(=O)n(CCC#N)c2n1,7.9%,-0.7%,.,.,.,-4.7,.
